# Ecoli rRNA inh: inhibitors of bacterial rRNA selective over humanized ribosomes; E. coli WT GFP vs humanized-ribosome RFP mutants, fluorescence, 24 h; hits give low values; DMSO median 0, no signal -100; GFP signal change (wild-type ribosome), % (test concentration not listed); 1.6% of 350,000 active; AID 720706;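 active = significant combined selectivity score with lowered wild-type GFP, culture density cut under 30%, mutant RFP and density less affected; inactive = any of these conditions unmet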; note: one replicate is shown; some compounds called inactive have numbers as strong as hits
# HNF4A DNA FP: change in binding of human HNF4 alpha to DNA; HNF4a-FITC DNA binding, fluorescence polarization, 1 h; activity change, % at 10 µM; 0.3% of 360,000 active; in the data active = activity change above about 30%, passing the limit was not always enough;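 note: controls were the assay level and a saturating level of protein; the project sought stronger binding though the title names inhibitors; some compounds called inactive have numbers as strong as hits; positive values seem to mean higher polarization but the record does not say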
# FGF22 binding: shifts melting point of recombinant human FGF22 | 1.5% of 340,000 active | Q9HCT0 | AID 651658 | calls only at 9.99 µM | recombinant FGF22 thermal shift, SYPRO orange fluorescence; percent of sucrose octasulfate shift, DMSO zero;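 active = melting point raised past a set limit in the mean and every replicate; three in four hits are not shown here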
# ALR H2O2 inh: blocks human ALR sulfhydryl oxidase activity; P55789; purified ALR, DTT oxidation, H2O2 HRP-luminol luminescence; inhibition, % (concentration not given with the values); 3.8% of 290,000 active;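 active = mean and each replicate at 75% or more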;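 note: stock transfer was 7.5 nL into about 7.5 µL; 0% = neutral wells and 100% = wells with inactivated enzyme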
# Target sequence (P55789 whole entry, looked up): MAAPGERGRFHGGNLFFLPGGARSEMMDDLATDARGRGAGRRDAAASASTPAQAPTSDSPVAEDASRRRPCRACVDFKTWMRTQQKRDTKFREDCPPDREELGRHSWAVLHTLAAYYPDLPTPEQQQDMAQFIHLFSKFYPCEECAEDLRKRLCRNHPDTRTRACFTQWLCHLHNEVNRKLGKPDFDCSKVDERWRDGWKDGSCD
# UCH37 DUB inh: blocks the human deubiquitinase UCH37; purified proteasome/UCH37, Ub-AMC cleavage fluorescence; inhibition, % (concentration not given with the values); 0.33% of 330,000 active;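 active = mean of two replicates above 20%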;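 note: 0% = compound-free wells with enzyme and 100% = wells lacking proteasome; stock transfer was 100 nL into about 20 µL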
# Target sequence (Q9Y5K5 whole entry, looked up): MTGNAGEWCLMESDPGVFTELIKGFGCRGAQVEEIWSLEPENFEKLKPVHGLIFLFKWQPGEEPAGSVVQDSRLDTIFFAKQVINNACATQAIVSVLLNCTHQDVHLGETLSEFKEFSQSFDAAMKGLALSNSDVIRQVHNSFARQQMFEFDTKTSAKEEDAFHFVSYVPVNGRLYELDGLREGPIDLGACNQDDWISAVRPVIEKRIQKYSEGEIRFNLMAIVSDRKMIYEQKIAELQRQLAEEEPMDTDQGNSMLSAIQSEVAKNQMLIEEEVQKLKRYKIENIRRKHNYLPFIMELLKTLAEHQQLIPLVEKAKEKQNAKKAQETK
#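 assay system = human UCH37 enzyme supplied as purified proteasome complex | amount = proteasome at 0.15 nM in the dispensed enzyme solution | schedule = 30 min compound-proteasome preincubation then 25 min substrate reaction, room temperature | measured by = fluorescence, ex 355 nm, em 460 nm | benchmarks = no-proteasome wells (full inhibition) and compound-free wells (no inhibition)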
# Beta2AR agonist: activates human beta-2 adrenergic receptor causing internalization | P07550 | Am2.2-beta2AR cells, FAP receptor internalization, flow cytometry; reference of the scale not given here | response, % (test concentration not listed) | 0.43% of 340,000 active | AID 504454;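 active = response above a set limit, near 3 SD of response in nonfluorescent compounds, cut at about 42% in these data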;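 note: stock transfer was 100 nL into about 11 µL; a reference agonist was the positive control; negative values mostly stem from fluorescent compounds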
# Target sequence (P07550 whole entry, looked up): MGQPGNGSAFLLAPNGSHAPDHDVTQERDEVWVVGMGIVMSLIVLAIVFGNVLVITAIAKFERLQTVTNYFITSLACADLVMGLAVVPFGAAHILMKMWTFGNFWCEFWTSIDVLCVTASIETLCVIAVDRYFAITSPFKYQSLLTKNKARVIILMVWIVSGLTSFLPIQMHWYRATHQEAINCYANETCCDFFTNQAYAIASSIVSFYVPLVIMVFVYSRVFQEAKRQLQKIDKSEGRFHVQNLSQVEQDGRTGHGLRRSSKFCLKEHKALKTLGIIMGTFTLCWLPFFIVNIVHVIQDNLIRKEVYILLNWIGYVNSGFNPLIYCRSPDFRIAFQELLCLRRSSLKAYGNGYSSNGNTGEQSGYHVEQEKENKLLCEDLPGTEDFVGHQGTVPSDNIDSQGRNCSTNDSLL
# E coli growth: E. coli growth inhibition; Escherichia coli growth, OD600, 23 h; hits give low values; OD600 absorbance (test concentration not listed); 0.21% of 330,000 active; AID 1053175;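 active = OD600 absorbance below the run mean of sample wells minus 3.6 SD, in any replicate, cut at about 0.56 in these data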;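 note: stock transfer was 300 nL into about 60 µL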
# Ecoli rRNA inh OD600: recorded beside Ecoli rRNA inh, whose call it bears; OD600 change, %; measured here: OD600 growth;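 optical density of the mix in the first replicate; 0 = DMSO median and -100 = no signal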
# Ecoli rRNA inh RFP: also measured in Ecoli rRNA inh; calls as there; RFP signal change, %; measured here: RFP humanized mutant strains;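 first replicate; 0 = DMSO median and -100 = no signal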
# Active calls of the source: *; i = inactive; x = not tested or not shown. Some of the compounds tested. The share of hits here may be higher or lower than overall.
canonical_smiles,Ecoli rRNA inh,Ecoli rRNA inh OD600,Ecoli rRNA inh RFP,HNF4A DNA FP,FGF22 binding,ALR H2O2 inh,UCH37 DUB inh,Beta2AR agonist,E coli growth
CCOC(=O)/C=c1/s/c(=C/c2ccc3cc(OC)ccc3c2)c(=O)n1CC(=O)NCc1ccc2c(c1)OCO2,5,12,2.6,81,i,x,-19,4,0.69
CC1CCN(c2ncccc2C(=O)O)CC1,24,12,2.2,1.9,i,-4,5.1,-3,0.71
Cc1ccccc1/C=N/n1c(COc2ccccc2)n[nH]c1=S,6,1,-1.2,-2.2,i,-49,x,2,x
COc1ccc(Cc2nnc(SCc3c(C)noc3C)n2C2CCCCC2)cc1OC,x,x,x,-2.1,x,28,1.2,-7,0.67
O=C(Nc1ccsc1C(=O)O)c1cccc(Oc2ccccc2)c1,-48,-77,-25,1.6,i,8,0.6,-7,0.65
CC(C)(C)c1ccc(CC(=O)N2CCC2(C)C(=O)NS(=O)(=O)Cc2ccccc2)cc1 (configuration not stated),2,11,0.5,-0.4,i,x,x,x,x
CCS(=O)(=O)c1ccc(O)c(NC(=O)/C=C/c2ccccc2)c1,-9,-3,-0.5,0.0,i,68,8.7,3,0.69
CS(=O)(=O)N1CCN(c2ccccc2NC(=O)Cc2ccc(Cl)cc2)CC1,x,x,x,-2.0,x,12,2.1,6,0.69
CCOc1ccc(/C=N/NC(=O)C2CC2)c(OCC)c1,21,15,-1.7,4.2,i,-18,x,-16,x
Fc1ccc(CSc2ccc(-c3cccs3)nn2)cc1,2,12,1.1,0.3,i,x,2.7,-14,0.68
CCn1cc(C(=O)OC)c(=O)c2ccc(C)nc21,-1,9,1.4,8.9,i,4,2.9,4,0.7
O=C(Cn1cc([N+](=O)[O-])ccc1=O)NCC(=O)Nc1ccc(F)c(F)c1F,7,19,4.0,-0.6,i,-2,4.5,7,0.63
N/C(=N\OC(=O)c1ccco1)c1ccc(Br)cc1,x,x,x,1.2,x,-7,4.9,3,0.69
CCOc1ccc(CONS(=O)(=O)c2ccc(NC(C)=O)cc2)cc1Cl,-23,-25,1.0,-4.2,i,9,4.6,-9,0.68
CCN(Cc1ccncc1)C(=O)c1cc(COc2c(C)cccc2C)on1,-8,-27,-3.0,9.9,i,-4,2.7,-7,0.69
CCCc1ccc2oc(C(=O)N(Cc3ccncc3)CC3CCCO3)c(C)c2c1 (configuration not stated),-53,-78,-11,1.8,i,-1,1.0,8,0.72
CC1(NC(=O)NCCCCCCNC(=O)NC2(C)CCS(=O)(=O)C2)CCS(=O)(=O)C1 (configuration not stated),5,9,-2.0,0.9,i,0,2.5,-3,0.71
Cc1ccc(C(=O)Nc2ccnc(-c3cccnc3)n2)cc1,16,20,0.7,0.5,i,-3,0.7,-20,0.66
Cc1ccc(N(CC(=O)Nc2ccc3c(c2)OCCO3)S(C)(=O)=O)cc1,3,4,-1.9,-1.6,i,-20,3.4,-3,0.66
COc1ccc(NS(=O)(=O)c2cc(NC(=O)CCc3ccccc3)ccc2N2CCOCC2)cc1,-5,-15,1.6,0.7,i,x,4.1,6,0.67
COc1ccc(CCN2CC(C(=O)NCc3c(C)n[nH]c3C)CCC2=O)cc1 (configuration not stated),14,13,1.2,2.3,i,0,2.7,-1,0.67
CCOC(=O)c1c(NC(=O)c2ccoc2C)sc(C)c1C,x,x,x,-7.7,x,1,-35,9,0.75
O=C(NCCc1ccc(C(F)(F)F)cc1)c1ccc2c(c1)OCO2,x,x,x,-1.0,i,-3,3.0,-2,0.7
CC(C)c1ccc(NC(=O)C(c2ccccc2)N2CCOCC2)cc1 (configuration not stated),-12,-16,-5.7,-11,i,-14,5.5,7,0.76
COc1ccc([N+](=O)[O-])cc1NC(=O)C(C)OC(=O)c1ccccc1C(=O)c1ccc(Cl)cc1 (configuration not stated),-4,-4,-0.5,-3.6,i,-7,3.1,-8,0.76
CN(CC(=O)Nc1cccc(C(F)(F)F)c1)C1=NS(=O)(=O)c2ccccc21,x,x,x,2.6,i,-11,2.1,2,0.69
COc1ccc(N2CCN(C(CNC(=O)C(=O)NCCCn3ccnc3)c3ccco3)CC2)cc1 (configuration not stated),7,15,4.5,-1.4,i,83*,-2.5,-5,0.71
O=C(C1=C[C@H](c2ccc(C(F)(F)F)cc2)C[C@H](OCCCCO)O1)N1CCN(Cc2ccc3c(c2)OCO3)CC1,-30,-65,-8.4,3.0,i,-14,0.2,-6,x
CC[C@H](C)[C@@H]1NC(=O)c2cc([N+](=O)[O-])cc(I)c2SC[C@@H](C(N)=O)NC(=O)[C@H](CCCCN)NC1=O,6,-2,-3.4,x,i,-34,2.9,x,x
CCOC(=O)c1c(P(=O)(N2CCOCC2)N2CCOCC2)noc1N,x,x,x,1.9,x,-5,1.3,3,0.72
CCOc1ccc(N2CC(C(=O)NCc3ccc(C)n3C)CC2=O)cc1 (configuration not stated),2,2,-6.5,-0.8,i,-69,-3.1,-2,0.73
C1=C(CCNc2ncnc3c2cnn3-c2ccccc2)CCCC1,x,x,x,-3.0,x,x,3.6,12,0.73
Cc1ccc(S(=O)(=O)n2c(CN3CCCC(C)C3)nc3ccccc32)cc1 (configuration not stated),x,x,x,1.0,x,-2,-2.2,5,0.66
C[C@@H]1CCC[C@]2(O[C@H](CCO)C[C@H](O)[C@H]2O)O1,0,5,7.7,0.7,i,x,-1.6,6,x
CC1=C(C#N)C(c2ccoc2)C(C(=O)OCc2ccccc2)=C(N)S1 (configuration not stated),x,x,x,-1.9,x,-6,2.8,3,0.68
O=C(NCCCN1CCCC1)c1cc2c(Cl)nc3ccccc3c2s1,-11,-20,-1.9,0.2,i,5,4.4,-6,0.64
COc1ccc(NC(=O)c2onc(C)c2Cl)cc1,11,5,-2.8,-2.5,i,-6,1.9,-3,0.65
CCOC(=O)CC1(NC(=O)c2cc(COc3c(F)cccc3F)on2)CCCCC1,1,1,-2.6,-4.2,i,-29,-0.8,-7,0.72
CCOc1ccc(NCc2ccccc2OCc2cccc(F)c2)cc1,-6,19,-8.0,2.1,i,x,-2.4,1,0.69
COc1ccc(NC(=O)C(Sc2nnc(-c3ccncc3)n2-c2ccccc2C)c2ccccc2)cc1Cl (configuration not stated),10,-3,0.2,-1.4,i,11,2.4,16,0.73
CC(=O)N1CCN(Cc2cc(=O)oc3cc(C)c(C)cc23)CC1,-3,4,2.6,0.0,i,x,x,x,x
O=[N+]([O-])c1ccc(N=NN(CCO)CCO)cc1,7,1,-0.1,1.3,i,-2,13,3,0.69
O=C(Nc1cccc2ncccc12)c1cccnc1,x,x,x,2.4,x,-4,-1.4,5,0.67
CCOC(=O)[C@H]1[C@H]2COc3ccc(Cl)cc3[C@@H]2N2C(=O)c3cc(OC)ccc3NC(=O)[C@@]12C,8,22,31,4.3,i,x,0.0,0,x
C/C(=N/NC(=O)c1cccs1)c1ccc(N2CCOCC2)cc1,17,10,-3.4,2.9,i,14,x,7,x
Cn1c(N)c(C(=O)CSc2nnnn2-c2ccccc2)c(=O)n(C)c1=O,2,15,7.5,-0.2,i,x,4.1,-15,0.68
S=c1[nH]nc(-c2ccccn2)n1/N=C/c1cccc(Cl)c1,27,20,3.8,1.4,i,41,x,-1,x
O=C(COC(=O)CCCc1c[nH]c2ccccc12)Nc1ccc2c(c1)OCO2,x,x,x,-3.3,x,23,1.1,6,0.73
Cc1cc(C(=O)O)cc(S(=O)(=O)NNC(=O)c2cccs2)c1C,2,10,2.2,-3.3,i,x,1.9,-2,0.7
COc1ccc(-c2n[nH]c(C)c2-c2cnn(-c3ccccc3)c2)c(O)c1C,x,x,x,-1.1,x,1,2.4,8,0.64

# (more compounds)
canonical_smiles,Ecoli rRNA inh,Ecoli rRNA inh OD600,Ecoli rRNA inh RFP,HNF4A DNA FP,FGF22 binding,ALR H2O2 inh,UCH37 DUB inh,Beta2AR agonist,E coli growth
O=S(=O)(Nc1ccccn1)c1cccc(S(=O)(=O)c2ccc(Cl)cc2)c1,-4,-15,-2.9,2.2,i,-13,2.2,-4,0.72
N/C(=N\OC(=O)CCCOc1ccccc1)c1cccc([N+](=O)[O-])c1,x,x,x,-0.3,i,x,x,-20,x
O=C1c2ccccc2NC(c2ccccc2Cl)N1N=C1CCCCCC1 (configuration not stated),2,-6,-11,3.0,i,-3,-192,2,0.69
Cn1ncc(Br)c1C(=O)Nc1cccc(C(F)(F)F)c1,-5,-1,-17,-4.7,i,-35,5.3,-7,0.66
CCOc1ccccc1Nc1nnc(SCC(=O)NC(Cc2c[nH]c3ccccc23)C(=O)O)s1 (configuration not stated),1,4,1.1,0.1,i,53,1.4,0,0.73
O=C(NC1CCN(C(=S)NCc2ccco2)CC1)NC12CC3CC(CC(C3)C1)C2,x,x,x,43*,x,-8,2.8,-9,0.72
CC(=O)N(CN1C(=O)C2C3C=CC(C3)C2C1=O)c1cccc(Cl)c1 (configuration not stated),14,14,1.0,-0.2,i,-2,0.4,-2,0.67
CN1C[C@H]2CON(C)[C@H]2C[C@H]1c1cccc(-c2ccc(C#N)cc2)c1,17,8,5.1,1.9,i,x,x,-4,x
Cc1ccc(S(=O)(=O)Nc2cc(=O)[nH]c(SCc3ccccc3Cl)n2)cc1,-12,-14,0.7,0.6,i,96*,3.7,x,0.69
COc1ccc(-c2cc(C(F)(F)F)n3ncc(C(=O)Nc4c(C)n(C)n(-c5ccccc5)c4=O)c3n2)cc1,x,x,x,x,x,1,-12,x,0.69
O=C(c1ccccc1)N1CCN(C(=O)c2ccc(OC(F)(F)F)cc2)CC1,x,x,x,-1.5,x,8,2.1,1,0.77

# A run of entries from further up, for reference:
canonical_smiles,Ecoli rRNA inh,Ecoli rRNA inh OD600,Ecoli rRNA inh RFP,HNF4A DNA FP,FGF22 binding,ALR H2O2 inh,UCH37 DUB inh,Beta2AR agonist,E coli growth
O=C1c2ccccc2NC(c2ccccc2Cl)N1N=C1CCCCCC1 (configuration not stated),2,-6,-11,3.0,i,-3,-192,2,0.69
Cn1ncc(Br)c1C(=O)Nc1cccc(C(F)(F)F)c1,-5,-1,-17,-4.7,i,-35,5.3,-7,0.66
CCOc1ccccc1Nc1nnc(SCC(=O)NC(Cc2c[nH]c3ccccc23)C(=O)O)s1 (configuration not stated),1,4,1.1,0.1,i,53,1.4,0,0.73
O=C(NC1CCN(C(=S)NCc2ccco2)CC1)NC12CC3CC(CC(C3)C1)C2,x,x,x,43*,x,-8,2.8,-9,0.72
CC(=O)N(CN1C(=O)C2C3C=CC(C3)C2C1=O)c1cccc(Cl)c1 (configuration not stated),14,14,1.0,-0.2,i,-2,0.4,-2,0.67
CN1C[C@H]2CON(C)[C@H]2C[C@H]1c1cccc(-c2ccc(C#N)cc2)c1,17,8,5.1,1.9,i,x,x,-4,x
Cc1ccc(S(=O)(=O)Nc2cc(=O)[nH]c(SCc3ccccc3Cl)n2)cc1,-12,-14,0.7,0.6,i,96*,3.7,x,0.69
COc1ccc(-c2cc(C(F)(F)F)n3ncc(C(=O)Nc4c(C)n(C)n(-c5ccccc5)c4=O)c3n2)cc1,x,x,x,x,x,1,-12,x,0.69
O=C(c1ccccc1)N1CCN(C(=O)c2ccc(OC(F)(F)F)cc2)CC1,x,x,x,-1.5,x,8,2.1,1,0.77
